# H5N1 antiviral = antiviral screen in MDCK cells, H5N1 avian flu | 96,000 compounds, 0.07% hits | cytopathic effect, luminescence, 72 h; active compounds read high; no value below 0 was filed and about half of the inactive calls have no number; reference of the scale not given here | AID 740 | inhibition, % at 50 µM; in the data active = inhibition above about 25%
# * hit, by the source's call; i = inactive.
SMILES,H5N1 antiviral
O=c1c2ccccc2nc(-c2ccccc2)n1Cc1ccco1,2.6
Cc1ccc2c(c1)[nH]c1c(N3CCN(Cc4ccccc4)CC3)ncnc12,i
CCOC(=O)c1cnc2c(C#N)c(C)nn2c1-c1ccccc1,2.0
CC(C)CCN(C(=O)CNC(=O)c1ccco1)C(C(=O)NC1CCCCC1)c1ccco1 (stereo unspecified),i
CC(C)CN(CC(C)C)c1ccc(C=C2C(=O)NC(=S)NC2=O)cc1[N+](=O)[O-],3.3
COc1ccccc1-c1nnc(SCC(=O)N2CCC(C)CC2)o1,1.4
O=C(N1CCOCC1)C1(c2ccc(Cl)cc2)CCCC1,1.1
O=C1C2ON(c3ccccc3)C(c3cccnc3)C2C(=O)N1Cc1ccccc1 (stereo unspecified),0.4
O=C(Nc1nc(-c2ccccc2)c(-c2ccccc2)s1)c1ccc(S(=O)(=O)N2CCCC2)cc1,i
O=S(=O)(c1ccccc1F)N(Cc1ccco1)Cc1nnc(-c2ccccc2Br)o1,4.5
COc1ccc(CNC(=O)Oc2ccccc2)cc1Cl,0.1
CCOC(=O)N1CCN(C(=O)CCCN2C(=O)CSc3nc(C)cc(C)c32)CC1,1.1
COc1ccc(-c2c(C#N)c(N)nc3c2CCCCCC3)cc1OC,0.6
Cc1ccc(-c2nc3ccccc3n3nnnc23)cc1,i
CCCCN(C)C(=O)C1CCN(CCCc2ccccc2)CC1,i
CC(C)c1ccc(O)c(NC(=O)c2cccnc2)c1,i
Cc1ccc(C)c(NC(=O)CSc2nnc(Cc3cccn3C)n2-c2ccc(F)cc2)c1,i
CN(C)c1ccc(NC(=O)COC(=O)CCC(=O)c2ccc(F)cc2)cc1,1.5
COc1ccc(OC)c(NC(=O)CSc2nnc(CNc3ccc(C)cc3C)o2)c1,0.4
CCOC(=O)C1=C(c2ccccc2)NC(SCC(=O)Nc2ccccc2C)=C(C#N)C1c1ccco1 (stereo unspecified),i
CCCS(=O)(=O)C(=C(Nc1ccc(OC)cc1)Nc1ccc(OC)cc1)S(=O)(=O)CCC,i
CSc1cccc(NC(=O)CN2C(=O)c3ccccc3S2(=O)=O)c1,i
CCOC1(OCC)C(c2ccc(N)cc2)C(C#N)(C#N)C1(OCC)OCC (stereo unspecified),i
Cc1occc1-c1nnc(SCC(=O)N2CCN(c3ccc(F)cc3)CC2)n1C,i

# 6 compounds picked at random from the list so far, as already listed:
SMILES,H5N1 antiviral
CCOC1(OCC)C(c2ccc(N)cc2)C(C#N)(C#N)C1(OCC)OCC (stereo unspecified),i
COc1ccc(-c2c(C#N)c(N)nc3c2CCCCCC3)cc1OC,0.6
Cc1ccc(-c2nc3ccccc3n3nnnc23)cc1,i
CCCS(=O)(=O)C(=C(Nc1ccc(OC)cc1)Nc1ccc(OC)cc1)S(=O)(=O)CCC,i
CSc1cccc(NC(=O)CN2C(=O)c3ccccc3S2(=O)=O)c1,i
CN(C)c1ccc(NC(=O)COC(=O)CCC(=O)c2ccc(F)cc2)cc1,1.5

# (listing goes on)
SMILES,H5N1 antiviral
O=C(N/N=C/c1cc(Br)ccc1O)C(=O)Nc1ccccc1OC(F)(F)C(F)F,i
COC(=O)C(O)(NC(=O)NC(C)=O)C(F)(F)F (stereo unspecified),i
CN1CCN(C(=O)c2cc3nc(-c4ccccc4)cc(-c4ccccc4)n3n2)CC1,i
CCC(Oc1ccccc1)C(=O)N1CCC(C(N)=O)CC1 (stereo unspecified),i
COc1ccc(C)cc1NC(=O)c1nnn(Cc2cccc(F)c2)c1N,i
Cc1ccc(CSC2=Nc3ccccc3C3=NC(CC(=O)NCc4ccco4)C(=O)N23)cc1 (stereo unspecified),i
Cc1ccc(Nc2nc(N)nc(CSCCO)n2)cc1,0.1
CN1CCN(S(=O)(=O)c2cccc(C(=O)Nc3nc(-c4ccccc4)cs3)c2)CC1,i
O=C(NCC(=O)N(CC1CCCO1)C1(C(=O)NC2CCCC2)CCCCC1)c1ccccc1 (stereo unspecified),0.1
CCOC(=O)c1c(N)n(CCCOC(=O)c2ccco2)c2nc3ccccc3nc12,0.5
CCc1ccccc1N(CC(=O)Nc1cccc(N(C)S(C)(=O)=O)c1)S(C)(=O)=O,2.6
CCc1nnc(N2CCN(c3ncnc4c3oc3ccccc34)CC2)s1,i

# Not a retest: 2 of the compounds above.
SMILES,H5N1 antiviral
CCC(Oc1ccccc1)C(=O)N1CCC(C(N)=O)CC1 (stereo unspecified),i
COc1ccc(C)cc1NC(=O)c1nnn(Cc2cccc(F)c2)c1N,i

# Continued:
SMILES,H5N1 antiviral
COCC(=O)Nc1cccc(Br)c1,i
COCCCNC(=O)c1c(N)n(/N=C/c2cccs2)c2nc3ccccc3nc12,i
COc1ccc(-c2cc(C(F)(F)F)nc(SCCC(=O)NCc3ccccc3)n2)cc1,i
O=C(CN1C(=O)C2C3C=CC(C3)C2C1=O)NCc1ccc2c(c1)OCO2 (stereo unspecified),i
CN(C)c1ccc(/C=C/C(O)=C2/C(=O)N(C)C3(C)CC2c2ccccc2O3)cc1 (stereo unspecified),i
CC1(C)CC(=O)C2=C(C1)NC(=O)CC2c1ccc(F)cc1 (stereo unspecified),0.1
N#CC1=C2C=Cc3ccccc3N2CCCC1=O,0.6
CCOC(=O)c1ccc(Nc2cc(C)nc(C)c2C(=O)OCC)cc1,i
CCc1ccc(C(=O)N2CCN(c3ccc(F)cc3)CC2)s1,i
CC(=O)c1cnc2cc(C)nn2c1C,i
O=S(=O)(Nc1ccc2c(c1)OCCO2)c1ccc2oc3ccccc3c2c1,1.8
Oc1ccc(-c2nc3ncccn3c2Nc2ccc3c(c2)OCO3)cc1,0.7
Clc1ccc(-c2nc3ccccc3n2OCc2ccccc2)cc1,i
COc1ccc(S(=O)(=O)N2CCC(C(N)=O)CC2)c2ccccc12,2.3
Cc1ccc(-n2nnnc2SCc2ccccn2)cc1C,i
O=C(NCCN1CCCCC1)c1c(O)c2ccccc2[nH]c1=O,i
CCOCCCn1c(SCC(=O)Nc2ccc(C(N)=O)cc2)nc2ccccc2c1=O,1.1
CCN(CC)c1ccc(C2C(C(=O)OCCOC)=C(C)NC3=C2C(=O)CCC3)cc1 (stereo unspecified),1.1
COc1c(Cl)cc(Cl)cc1CNCCNCC(C)O (stereo unspecified),i
CC(C)(C)n1nnnc1C(c1cccc(C#N)c1)N1CCC(Cc2ccccc2)CC1 (stereo unspecified),1.4
O=C1C(C=NCCCN2CCCC2=O)=C(O)c2ccccc21,0.0
CC(C)C(=O)Nc1cccc(C(=O)NCc2ccc(S(N)(=O)=O)cc2)c1,i
O=C(NCc1ccco1)c1ccc2c(c1)N(Cc1ccccc1)C(=O)CS2,0.8
CCOC(=O)N/N=C/c1ccc(C)o1,0.7

# Quoted from the listing.
# CCOC(=O)N/N=C/c1ccc(C)o1 in H5N1 antiviral is listed with 0.7
# CC(C)(C)n1nnnc1C(c1cccc(C#N)c1)N1CCC(Cc2ccccc2)CC1 (stereo unspecified) in H5N1 antiviral is listed with 1.4
# O=C1C(C=NCCCN2CCCC2=O)=C(O)c2ccccc21 in H5N1 antiviral is listed with 0.0
# CCOCCCn1c(SCC(=O)Nc2ccc(C(N)=O)cc2)nc2ccccc2c1=O in H5N1 antiviral is listed with 1.1

# (continued)
SMILES,H5N1 antiviral
Cc1ccc(S(=O)(=O)C2(C(=O)NCc3ccc4c(c3)OCO4)CC2)cc1,0.3
COc1cc(OC)cc(C(=O)Nc2cccc(NC(C)=O)c2)c1,i
CCOC(=O)N1CCN(C(=O)c2cc3c(s2)-c2ccccc2OC3)CC1,1.0
c1ccc(Nc2nc(-c3ccncc3)cs2)nc1,1.4
COC(=O)CCC(=O)N1CCc2cc(S(=O)(=O)N3CCc4ccccc43)ccc21,1.5
CCOc1ccc(CC(=O)C2C(=O)CC(C)(C)CC2=O)cc1OCC,1.1
CCOC(=O)c1cccc(NC(=O)C2CCCN(S(=O)(=O)c3cnc[nH]3)C2)c1 (stereo unspecified),i
COc1ccc(NC(=O)C2CCCN2S(=O)(=O)c2ccc3c(c2)CCC(=O)N3)cc1 (stereo unspecified),0.6
CC(=O)NC(=O)NC1CSCC1OC(C)=O (stereo unspecified),1.0
CC(C)(C)NC(=O)NC(=O)COc1ccccn1,i
COc1ccccc1CNC(=O)CC(NS(=O)(=O)c1ccc(C)cc1)c1ccco1 (stereo unspecified),i
CC1CCN(c2c(NCC3CCC(C(=O)N4CCCC(C)C4)CC3)c(=O)c2=O)CC1 (stereo unspecified),0.5
CCN1CCN(Cc2cccc(Oc3ccccc3)c2)CC1,0.3
COc1ccc(C2Nc3ccccc3C(=O)N2c2ccc(C)cc2)cc1Cn1nnc2ccccc21 (stereo unspecified),i
COC(=O)c1ccc(COC(=O)c2ccc(CS(=O)(=O)c3ccc(C)cc3)cc2)cc1,0.4
COC(=O)c1ccccc1NC(=O)Nc1cnccn1,0.0
CCCn1nc2cc(C(=O)NCc3ccc(OC)cc3)ccc2c1OCC,1.4
O=c1cc(CO)oc(CN2CCC(Cc3ccccc3)CC2)c1O,i
Cc1ccc(OCCn2cc(C(=S)N3CCCC3)c3ccccc32)cc1C,9.6
Cc1nn(CC(=O)Nc2ccccn2)c(=O)c2ccccc12,0.0
CCN(CC)S(=O)(=O)c1cccc(C(=O)N2CCCCC2)c1,1.8
CCNC(=S)NNC(=O)c1cc(CC(C)C)nc2ccccc12,i
CCCC(=O)Nc1nnc(COC)s1,0.5
COCCn1nnnc1CN(Cc1cccnc1)Cc1cc2cc(OC)ccc2[nH]c1=O,0.9
COc1ccccc1-c1cc(C2CC2)nc(N)c1C#N,0.1
COC(=O)c1nc2n(n1)C(c1cccc(Cl)c1)C1=C(CC(C)(C)CC1=O)N2 (stereo unspecified),i
CN1CCN(CCN2CCn3c2nc2ccccc23)CC1,0.6
CC1CCc2c(sc3nn[nH]c(=O)c23)C1 (stereo unspecified),i
O=C(CN1CCN(C(=O)c2ccco2)CC1)Nc1ccc(Cl)c(C(F)(F)F)c1,i
CCOP(=O)(c1ccc(N(C)C)cc1)C(O)c1ccc(Cl)cc1 (stereo unspecified),i
Clc1ccc2oc(-c3cccnc3)nc2c1,0.1
O=C(CN1C(=O)c2cccc3cccc1c23)N1CCN(c2cccc(Cl)c2)CC1,1.0
CCCCNC(=O)Nc1ccccc1C(=O)Nc1ccc(OC)cc1,i
Cn1c(Cn2c(=O)sc3ccccc32)nnc1SCC(=O)NCC1CCCO1 (stereo unspecified),i
COc1cc(C2c3c(-c4cc(C)cc(C)c4O)n[nH]c3C(=O)N2CCCO)cc(OC)c1OC (stereo unspecified),0.3
NCCCCCc1nnc(SC/C=C/c2ccccc2)o1,i
O=C(Nc1ccc(Cl)cc1)N1CCN(c2ccc3nnc(-c4ccc(F)cc4)n3n2)CC1,12
Cc1ccc(Cl)cc1N(CC(=O)N1CCCCCC1)S(C)(=O)=O,0.3
Nn1c(SCC(=O)Nc2ccc3c(c2)OCO3)nnc1-c1ccc(Cl)cc1,i
COc1ccccc1NC(=O)CSc1nnc(Cc2cc(=O)[nH]c(=O)[nH]2)n1-c1ccccc1,0.3
CCOc1ccc(Cc2nnc(SCC(N)=O)n2C)cc1,i
COc1ccc(NC(=O)N(Cc2cc3cc(OC)ccc3[nH]c2=O)CC2CCCO2)cc1 (stereo unspecified),i
O=C1NC2(CCCc3ccccc32)C(=O)N1CCOc1ccc(Br)cc1 (stereo unspecified),3.7
Cc1ccc(S(=O)(=O)NC(CC(=O)N2CCC3(CC2)OCCO3)c2ccco2)cc1 (stereo unspecified),i
CCC(OC(=O)CC1Sc2ccccc2NC1=O)C(=O)NCC1CCCO1 (stereo unspecified),i
CCOC(=O)C1=C(CSc2nc(C)ccc2C#N)OC(N)=C(C#N)C1c1cccc(OC)c1OC (stereo unspecified),0.8
Cc1cc(=O)[nH]c(N2CCN(Cc3ccccc3)CC2)n1,0.3
O=C(NCc1ccccc1)NC1CCCCC1,i

# Five entries already listed, sorted by heavy-atom count, highest first:
SMILES,H5N1 antiviral
Cc1ccc(S(=O)(=O)NC(CC(=O)N2CCC3(CC2)OCCO3)c2ccco2)cc1 (stereo unspecified),i
Nn1c(SCC(=O)Nc2ccc3c(c2)OCO3)nnc1-c1ccc(Cl)cc1,i
Cc1ccc(Cl)cc1N(CC(=O)N1CCCCCC1)S(C)(=O)=O,0.3
CCOc1ccc(Cc2nnc(SCC(N)=O)n2C)cc1,i
O=C(NCc1ccccc1)NC1CCCCC1,i

# Continued:
SMILES,H5N1 antiviral
Cc1nc2ccccc2n1CC(=O)OCC(=O)NCCc1ccccc1,i
S=C(c1ccc(N2CCOCC2)cc1)N1CCCCC1,0.5
CCCC1CCC(C(=O)Nn2c(C)nc3ccccc3c2=O)CC1 (stereo unspecified),i
O=C(CN1CCN(S(=O)(=O)c2ccc3ccccc3c2)CC1)NC(=O)NC1CCCCC1,i
Cc1nn(-c2ccccc2)c(C)c1/C=N/NC(=O)c1cc(C(C)(C)C)[nH]n1,i
CCOC(=O)c1cccc(NC2c3ccccc3C(=O)N2Cc2ccco2)c1 (stereo unspecified),i
COc1cccc(-c2cc(C(=O)O)[nH]n2)c1,i
Cc1nn(Cc2ccccc2Cl)c(C)c1N,i
Cc1ccc(C(=O)N/C(=C/c2ccco2)C(=O)NCCc2c[nH]c3ccccc23)cc1C,i
Cc1ccccc1N(C)C(=O)c1coc(=O)c2ccccc12,i
COc1cc2[nH]c(=S)n(CC3CCCO3)c(=O)c2cc1OC (stereo unspecified),i
O=C(CSc1nnc(-c2ccc(S(=O)(=O)N3CCOCC3)cc2)o1)c1ccccc1F,0.8
C1CCN=C(Nc2nn[nH]n2)CC1,i
COc1ccccc1NC(=O)CN1CCN(CC(=O)Nc2ccc(Cl)c(C(F)(F)F)c2)CC1,i
CCCCCP(=O)(O)c1ccccc1,i
CCN(CCNC(=O)Nc1ccc(Cl)cc1)c1ccccc1,0.4
CCOc1ccc(S(=O)(=O)N(C)c2ccc(OCC(=O)Nc3ccc4[nH]c(=O)[nH]c4c3)cc2)cc1,0.9
O=C(Cn1cnc2ccccc2c1=O)Nc1ccc(-c2nnc3n2CCCCC3)cc1,i
CCc1cccc(NC(=O)CSC2=NS(=O)(=O)c3ccccc32)c1,2.0
COc1ccc2c(c1)N1CCN=C1N2C,i
C=CCOC(=O)/C(=C\c1cccc2ccccc12)NC(=O)c1ccccc1,1.0
Cc1nn2c(-c3ccncc3)nnc2c2ccccc12,7.2
O=C(O)CCCNC(=O)OCc1ccccc1,i

# From PubChem BioAssay

# A portion of the library. The share of hits here may be higher or lower than overall.
